# Bioassay records deposited in PubChem by several laboratories.
# Mtb hypoxia rep = reduces hypoxia-regulated biosensor signal in M. tuberculosis; 300,000 tested, 0.1% active; AID 1159583; M. tuberculosis hypoxia-regulated fluorescent reporter, fluorescence; fluorescence inhibition, % (no concentration beside the values);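 active means 35 to 45% if threefold the growth effect, above 45% if 1.5-fold the growth effect; inactive means the rest, general growth blockers included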;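 further: wells of about 50 µL received 100 nL stock; 0% = vehicle wells and 100% = reference inhibitor wells; whole bacteria with a GFP reporter of the hypoxia response; strong numbers were not always called active; many hits fall short of the cut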
# BJeLR viability = BJeLR cell viability loss | BJeLR (HRASV12) viability, CellTiter-Glo ATP luminescence, 48 h; reference of the scale not given here | 300,000 tested, 0.17% active | inhibition, % (concentration not given with the values);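 active means replicate mean above 50%; inconclusive means above 50% but judged a plate artefact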;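 further: 50 nL library stock added to about 25 µL; numbers are from one replicate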
# Sa ugtP lethal = growth inhibition of S. aureus ugtP deletion strain | S. aureus RN4220 ugtP deletion, OD600 growth, 16 h; some inactives read as strong as hits | growth inhibition, % (no concentration beside the values) | 330,000 tested, 0.54% active | AID 1259309;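 active means z-score under -3 and OD600 up to 0.15 on both plates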;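 further: plate controls were untreated wells for no effect and antibiotic for full effect; wells of about 80 µL received 100 nL stock; the first replicate is given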
# Sa RN4220 lethal = kills Staphylococcus aureus RN4220. S. aureus RN4220 growth, OD600, 16 h. inhibition, % (test concentration not listed). 330,000 tested, 0.33% active. AID 1259311;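 active means z-score of -3 or lower and OD600 up to 0.18 on both plates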;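 further: plate controls were untreated cells for no effect and reference antibiotic for full effect; stock transfer was 100 nL into about 80 µL; one replicate is shown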
# Bead autofluor = compound fluorescence in toxin protease inhibitor counterscreen; fluorescence intensity (test concentration not listed); 360,000 tested, 3.1% active; AID 624483; compound autofluorescence counterscreen, microsphere flow cytometry; hits give high values;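 active means at least 3 SD above the mean of all compounds, about 16000 in these data; inconclusive means too few beads counted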;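 further: 100 nL of 1 mM stock went into each well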
# PrP UTR inh = suppresses PrP 5' UTR mRNA reporter expression; 340,000 tested, 0.35% active; inhibition, % (test concentration not listed); cell-based PrP 5' UTR mRNA reporter, plate reader; AID 488862;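 active means every replicate at 50% or more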;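 further: 0 = median of the neutral control wells; tested in H4 reporter cells; numbers are from one replicate; inactives centre near -14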
# Mtb hypoxia rep growth = recorded beside Mtb hypoxia rep, whose call it bears; growth inhibition, %; measured here: M. tuberculosis growth (absorbance);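 0% = vehicle and 100% = reference antibiotic; read after six days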
# * hit, by the source's call; ? = inconclusive; . = not tested or not shown.
SMILES,Mtb hypoxia rep,Mtb hypoxia rep growth,BJeLR viability,Sa ugtP lethal,Sa RN4220 lethal,Bead autofluor,PrP UTR inh
Cc1cccc(-c2nc(-c3ccncc3)no2)c1,5.3,5.1,-2.0,2.9,6.8,3084,-59.8
Nc1ccc(C(=O)c2ccccc2C(=O)O)cc1Cl,14.3,13.5,9.7,2.3,4.0,9835,-29.4
Cc1cccc(C)c1NC(=O)Cc1cccs1,13.5,15.2,3.9,2.0,6.8,3358,-51.2
O=C(C[N+]12CCC(CC1)C(C(O)(c1ccccc1)c1ccccc1)C2)c1ccc(Br)cc1 (stereo not drawn),11.3,28.2,-6.3,-13.0,-4.8,4602,-31.7
COc1ccc(CCN(C)C(=O)c2oc3ccccc3c2C)cc1OC,3.8,8.8,-4.5,3.1,4.6,6028,-2.4
Cc1cc(C(=O)CN2CCC(C)CC2)c(C)n1-c1ccc(F)cc1,1.0,6.4,4.7,10.8,0.7,2739,-100.2
CCCCNC(=O)c1onc(CSc2ccccc2F)c1C(=O)O,-15.6,-22.8,13.2,-1.0,6.1,3883,-24.6
O=c1c2[nH]cnc2n(-c2cccc(F)c2)c(=O)n1Cc1ccccc1,-7.5,-6.8,-10.5,6.8,3.3,3936,6.0
O=C(c1cc(=O)[nH]c2ccccc12)N1CCN(S(=O)(=O)c2ccc(Cl)cc2)CC1,-5.4,7.2,.,3.0,1.7,3655,-4.1
CC(C)CCn1c2ccccc2c2cc(CC(N)=O)ccc21,-1.0,4.0,-4.3,83.5*,-2.7,6245,2.5
CC(=O)c1ccc(N(C(=O)c2ccco2)C(C(=O)NC2CCCC2)c2cccs2)cc1 (stereo not drawn),-1.2,-2.3,-0.1,5.1,0.9,3290,-17.9
COC(=O)/C(C#N)=C/c1c[nH]c2ccccc12,.,.,-0.8,.,.,4181,-19.0
COc1cccc(CC(=O)OCC(=O)NCc2ccc3c(c2)OCO3)c1,-2.6,-1.7,.,-4.0,-4.1,3766,-4.1
COCC=CC1=CC(=O)CC(c2ccc3c(c2)OCO3)C1 (stereo not drawn),5.3,6.3,.,0.1,-1.0,.,.
CCCCCNC(=O)C1CC=CCC1C(=O)O (stereo not drawn),2.9,-3.0,-1.4,2.9,-0.1,4519,-7.8
COC(=O)c1ccc(COc2ccc(C)c(C)c2)o1,6.0,2.3,0.7,7.0,4.2,3963,-31.9
O=C(O)c1cccc(S(=O)(=O)N(Cc2ccccc2)c2ccc(Cl)cc2)c1,0.1,2.3,-1.6,-0.8,7.4,3426,-15.6
Nc1nn2c(C(F)(F)F)cc(=O)[nH]c2c1N=Nc1cccc(F)c1,8.7,8.4,-0.4,-1.7,4.4,4438,-16.5
O=C(Cc1ccccc1)Nc1ncccc1Cl,-1.1,-4.0,-4.7,0.8,1.0,4488,.
COc1cccc(C(=O)NC2CCNCC2)c1,20.1,2.7,-8.1,2.3,1.2,.,-8.9
C=C(C)CSc1nnc([C@@H](N)Cc2ccccc2)o1,15.0,8.0,-6.3,2.1,3.3,3783,-18.6
COc1ccc(Br)cc1/C=N/n1c(C)nc2ccccc2c1=O,.,.,9.3,.,.,3334,17.5
Cc1ccc(N=C2SCCCN2C(=O)C2=COCCO2)cc1Cl,2.8,-2.0,-4.8,-5.0,4.1,6955,-12.4
Cc1ccccc1OCc1nc(-c2ccc(NC(=O)c3cccs3)cc2)no1,-1.8,7.1,21.8,13.3,5.8,2176,-74.8
CCOC(=O)/C=C1\NC(C)(C)Cc2cc(OC)c(O)cc21,11.9,4.1,5.8,-1.3,2.3,5650,-3.7
COc1ccc(C=NN2CCOCC2)cc1Cn1cc([N+](=O)[O-])cn1,21.8,4.0,.,4.8,2.0,.,.
Cc1ccc(-n2c(SCC(=O)NCc3ccco3)nc3nc4c(cc3c2=O)COC(C)(C)C4)cc1,-1.0,3.8,-0.7,7.2,18.5,3019,-14.7
C=CCc1c(C)nc(-c2ccccc2)nc1NN=C(C)c1ccc(N)cc1,14.2,7.0,.,6.7,5.2,.,.
CCC(=O)Nc1ccc(Cl)c(NC(=O)c2ccc(Br)o2)c1,-0.9,-1.4,-6.0,0.9,6.8,2908,-21.1
O=C(CN1C(=O)C2CC=C(Cl)CC2C1=O)N1CCOCC1 (stereo not drawn),5.3,8.9,-4.0,-0.4,-2.2,4449,-33.7
COc1ccc(C(=O)Nc2ccc3c(c2)Cc2ccccc2-3)cc1,.,.,-5.0,9.5,3.1,2180,-27.1
COc1ccc(CC(=O)N/N=C(\C)CC(=O)Nc2ccc(N(C)C)cc2)cc1OC,.,.,-0.8,.,.,4175,-23.6
COc1cc(NC(=O)C2C3C=CC(C3)C2C(=O)O)c(OC)cc1Cl (stereo not drawn),18.8,11.5,2.3,6.1,3.7,11139,-21.2
Cc1ccc2nc(N(CCN(C)C)C(=O)c3ccc4c(c3)OCCO4)sc2c1,2.6,13.3,2.6,10.7,-1.4,5409,-31.6
O=C(COC(=O)c1ccc(S(=O)(=O)N2CCOCC2)cc1)NC1CCCC1,.,.,0.9,4.0,2.9,3744,-7.9
Cc1ccc(S(=O)(=O)N2CC=C(C(=O)NC3CCCC3)CC2)cc1,12.6,2.4,-6.0,1.3,0.6,5746,-0.3
Cc1oc(-c2ccc3c(c2)OCCO3)cc1C(=O)NC(CCC(=O)O)C(=O)O (stereo not drawn),1.8,6.9,-2.8,1.1,5.9,7842,-32.8
CCCc1ccc(Oc2cn[nH]c2-c2ccc(O)c(C)c2O)cc1,13.1,2.4,2.6,100.1*,99.4*,5402,-8.1
COc1cccc(C(=O)Nc2cccc(C(=O)NC3=NN(c4c(Cl)cc(Cl)cc4Cl)C(=O)C3)c2)c1,-1.3,6.9,2.6,3.7,-4.5,3692,-18.3
NC(=O)Cn1cc(C=NNS(=O)(=O)c2cccc([N+](=O)[O-])c2)c2ccccc21,7.4,2.9,.,13.4,-3.3,.,.

# Gathered by group: the compounds so far with a nitro group on carbon (two)
SMILES,Mtb hypoxia rep,Mtb hypoxia rep growth,BJeLR viability,Sa ugtP lethal,Sa RN4220 lethal,Bead autofluor,PrP UTR inh
COc1ccc(C=NN2CCOCC2)cc1Cn1cc([N+](=O)[O-])cn1,21.8,4.0,.,4.8,2.0,.,.
NC(=O)Cn1cc(C=NNS(=O)(=O)c2cccc([N+](=O)[O-])c2)c2ccccc21,7.4,2.9,.,13.4,-3.3,.,.

# Reprinted at random: 2 compounds from above
SMILES,Mtb hypoxia rep,Mtb hypoxia rep growth,BJeLR viability,Sa ugtP lethal,Sa RN4220 lethal,Bead autofluor,PrP UTR inh
Cc1cccc(-c2nc(-c3ccncc3)no2)c1,5.3,5.1,-2.0,2.9,6.8,3084,-59.8
Cc1cccc(C)c1NC(=O)Cc1cccs1,13.5,15.2,3.9,2.0,6.8,3358,-51.2

# (list continues)
SMILES,Mtb hypoxia rep,Mtb hypoxia rep growth,BJeLR viability,Sa ugtP lethal,Sa RN4220 lethal,Bead autofluor,PrP UTR inh
Cc1cccc(C)c1N1CCN(c2n[nH]c(N)n2)CC1,-7.6,-3.0,-8.7,2.1,-6.6,4378,-15.1
O=C(Cn1ccc(NC(=O)OCc2ccccc2)nc1=O)NCC1CCCO1 (stereo not drawn),2.1,6.3,.,-3.8,1.4,3498,-0.3
CCn1cc(C(=O)NCC2CCCO2)c(=O)c2cc(S(=O)(=O)N3CCCCCC3)ccc21 (stereo not drawn),-7.0,12.5,-4.9,-4.7,6.9,6947,-17.6
Nc1c2c(nn1-c1ccc(F)cc1)CSC2,.,.,-6.5,.,.,4077,-29.6
COC(=O)CN(C#N)c1nc(NC(C)C)nc(NC(C)C)n1,13.7,11.0,-3.2,3.7,1.4,2558,-27.0
O=S(=O)(Nc1ccccn1)c1ccc(Cl)cc1,-1.9,4.4,-0.8,4.9,4.4,23792*,-17.7
COCC1=C(C(=O)OC(C)OC(=O)OC(C)C)N2C(=O)[C@@H](NC(=O)/C(=N\OC)c3csc(N)n3)[C@H]2SC1 (stereo partly drawn),.,.,-7.2,.,.,4183,-8.5
Cn1c2ccccc2n2c(=O)c(Cl)c(-c3ccccc3)c(C#N)c12,.,.,19.6,.,.,8128,0.8
Cc1c(C(=O)NN=Cc2cccc(O)c2)nnn1-c1nonc1N,-6.6,6.8,.,-4.5,-1.2,.,.
O=C(O)C1CCCN(S(=O)(=O)c2ccccc2[N+](=O)[O-])C1 (stereo not drawn),2.2,13.9,-2.7,15.0,8.3,4038,-74.2
CCCN1CCN(C(=O)c2oc3ccccc3c2NC(=O)COc2ccc(OC)cc2)CC1,5.7,2.4,2.5,5.6,2.2,6230,-8.0
O=C(CN1CCN(Cc2ccccc2)CC1)NCC1COc2ccccc2O1 (stereo not drawn),8.3,10.4,-4.6,6.6,5.6,23257*,-21.6
Clc1ccccc1C1=CC(c2ccco2)n2nnnc2N1 (stereo not drawn),-3.7,-21.8,-3.4,-13.4,7.1,2603,-30.3
CC1Sc2ccc(S(=O)(=O)CCC(=O)N3CCc4ccccc43)cc2NC1=O (stereo not drawn),0.4,3.4,1.2,1.0,3.4,5589,-18.1
COc1cccc(NC(=O)NC2(C(F)(F)F)Oc3ccccc3O2)c1,3.3,4.3,-13.1,10.6,5.7,2970,-8.4
CCOC(=O)c1cccc(NC(=O)CCn2c(=O)oc3ccccc32)c1,8.9,2.6,1.7,3.9,2.0,3614,-14.9
Cn1c(=O)[nH]c(=O)c2c1nc(OC(=O)c1ccccc1)n2CC(O)COc1ccccc1 (stereo not drawn),13.9,13.6,13.3,-3.1,-11.3,2908,-51.8
CCOC(=O)c1cnc2c(Cl)cc(Cl)cc2c1NCCCN1CCOCC1,7.4,-1.5,-15.0,-1.2,4.1,3657,-9.4
CCOC(=O)c1cc(-c2ccccc2)n(CCC(=O)N2CCN(c3ccc(OC)cc3)CC2)c1C,5.0,7.5,-0.4,-1.6,2.7,4597,-8.2
Cc1ccccc1Nc1nc(N)nc(COC(=O)CCS(=O)(=O)c2ccc(Cl)cc2)n1,2.2,-3.9,.,1.0,1.9,?,-25.4
CCCCN(C)C(=O)C1CCN(Cc2ccccn2)CC1,4.7,2.9,.,3.9,-2.1,3039,-23.1
Cc1nc2ccc(S(=O)(=O)N(C)CC(=O)NCc3ccc(N(C)C)cc3)cc2s1,-5.7,9.0,7.1,4.5,0.8,5574,-13.4
CC1(CC(=O)NN=Cc2cc(Br)c(O)cc2O)OCCO1,-10.8,-10.5,.,-6.2,0.7,.,.
O=[N+]([O-])c1cccc(C=NNc2nc(NCc3ccccc3)nc(N3CCOCC3)n2)c1,-15.6,1.3,.,12.1,2.1,.,.
COc1ccc(C)cc1NC(=O)C1CCN(S(=O)(=O)c2ccc3c(c2)C(C)(C)C(=O)N3C)CC1,-0.8,3.8,8.1,1.9,2.7,6129,-11.8
CC(c1n[nH]c(=S)n1-c1ccccc1)N1CCCCC1 (stereo not drawn),2.4,12.9,-0.6,1.8,2.6,3595,-13.0
COc1ccc(/C=C/C(=O)c2ccc(OC)cc2OC)cc1,.,.,7.0,4.4,10.9,5248,-25.5
CCCOc1ccc(OCCCCNC(C)CC)cc1 (stereo not drawn),12.8,13.5,-1.5,0.8,6.5,4614,-12.6
CSc1nnc(CCNC(=O)OC(C)(C)C)o1,9.0,1.2,-3.7,6.7,2.1,4208,-32.0
COc1cccc(-n2nc(C(C)=O)c(=O)[nH]c2=O)c1,13.4,16.7,1.7,4.1,6.5,2628,-12.3
CC(C)c1ccc(NC(=O)CN2C(=O)NC(C)(C3CC3)C2=O)cc1 (stereo not drawn),14.1,3.4,.,4.9,6.4,.,-5.8
COc1ccc(C2CC(c3ccccc3OC(C)=O)=NN2C(C)=O)cc1 (stereo not drawn),2.4,-0.3,-4.7,-4.2,1.5,6191,-36.3
Cc1ccc(C)c(NS(=O)(=O)c2ccc3c(c2)NC(=O)CO3)c1,16.0,4.8,6.0,-0.5,16.4,4725,-12.9
Cc1c(C(=O)N2CCN(Cc3ccc4c(c3)OCO4)CC2)sc2ncnc(N3CCN(c4ccccc4)CC3)c12,-2.3,15.8,11.1,16.2,-9.5,4064,-16.1
CCOc1ccc2nc(SCC(=O)NCc3ccc(OC)c(OC)c3)[nH]c2c1,-8.7,1.8,-3.8,0.5,-1.2,2564,-38.8
CC1=NOC(=O)/C1=C/c1ccc(O)c(Cl)c1,1.2,-9.2,-7.8,3.2,3.3,4344,-21.2
Cc1nnc2sc(-c3cccc(NC(=O)c4cccnc4)c3)nn12,-4.7,-3.4,-9.9,10.9,5.3,15039,-12.8
